VDR inhibitor – Inhibitors of the vitamin D receptor (VDR): qHTS. 400,000 compounds, 0.93% hits. Vitamin D3 receptor (Homo sapiens), P11473. Potency, µM, without a hit: max response, negative = inhibition, actives largely listed as inhibitors. VDR-SRC2-3 peptide fluorescence polarization, 2 h; active means well fitted inhibition curve with a large enough effect; inconclusive means small, poorly fitted or top-dose-only effect, or another doubt; inactive means no such curve, though single readings can be large or run the other way; further: series mostly up to about 120 µM
Target sequence (P11473 whole entry, looked up): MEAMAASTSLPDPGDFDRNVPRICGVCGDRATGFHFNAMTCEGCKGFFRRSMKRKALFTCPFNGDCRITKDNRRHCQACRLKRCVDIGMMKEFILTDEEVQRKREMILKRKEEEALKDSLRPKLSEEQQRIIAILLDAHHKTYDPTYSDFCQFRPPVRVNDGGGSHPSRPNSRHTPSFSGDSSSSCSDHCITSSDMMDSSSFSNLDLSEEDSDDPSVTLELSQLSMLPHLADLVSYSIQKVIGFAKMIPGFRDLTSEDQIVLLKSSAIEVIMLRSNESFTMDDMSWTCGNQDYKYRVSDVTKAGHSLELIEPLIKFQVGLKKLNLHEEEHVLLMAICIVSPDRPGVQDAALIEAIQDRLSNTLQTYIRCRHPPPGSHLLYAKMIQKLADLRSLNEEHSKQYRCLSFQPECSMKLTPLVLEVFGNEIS
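Signal is fluorescence polarization, reporting how far test compounds block the interaction of VDR with the SRC2-3 coregulator peptide after a 2 h room-temperature incubation.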
Starred values were filed as active, the others as inactive; u = inconclusive; & = joins results of further samples; [ ] = remark or other dose. On the % scale 0 is the no-effect control and ±100 the full control effect; potency means the concentration at half of the fitted maximal effect.

The first 4 compounds, ahead of the listing:
VDR inhibitor	compound
-0.9%	Cc1cc(NC(=O)c2ccc(-c3ccccc3F)o2)no1
4.6%	CN(CC(=O)Nc1ccccc1Cl)C(=O)COC(=O)c1ccc(C(F)(F)F)cc1
15.1%	Cc1ccc(C)c(OCC(=O)Nc2ccc3c(c2)OCO3)c1C
-4.5%	Cn1c(-c2ccc(F)cc2)cnc1SCC(=O)Nc1ccccc1N1CCOCC1

The listing (from the top)
VDR inhibitor	compound
-0.9%	Cc1cc(NC(=O)c2ccc(-c3ccccc3F)o2)no1
4.6%	CN(CC(=O)Nc1ccccc1Cl)C(=O)COC(=O)c1ccc(C(F)(F)F)cc1
15.1%	Cc1ccc(C)c(OCC(=O)Nc2ccc3c(c2)OCO3)c1C
-4.5%	Cn1c(-c2ccc(F)cc2)cnc1SCC(=O)Nc1ccccc1N1CCOCC1
2.2%	COc1cccc(NC(=O)C2CCC(CNS(=O)(=O)c3cccc4cccnc34)CC2)c1 (stereo unspecified)
-10.0%	COCCCn1c(=O)c2sccc2n(Cc2ccccc2C)c1=O
16.1%	Clc1ccc(-c2nc(-c3ccccn3)no2)cc1Cl
0.9%	Cc1nn(C)c(C)c1/C=N/NC(=O)C(C)(C)Oc1ccc(Cl)cc1
-18.3%	CC(C)(CO)NCc1cc(Br)ccc1OCc1ccccc1
1.3%	CCOC(=O)c1[nH]c2ccc(OC)cc2c1NC(=O)c1ccccc1C(=O)O
4.3%	CC(=O)NC(Cc1ccccc1)C(=O)NC1CCN(C(=O)c2cnccn2)CC1 (stereo unspecified)
u	Cn1c2ccccc2c(=O)c2c(=O)n(-c3ccccc3)c(-c3ccc(C(C)(C)C)cc3)nc21
-11.8%	Fc1cccc(Nc2cc(-n3cccn3)ncn2)c1
-8.2%	NNC(=O)C(Cc1ccccc1)NC(=O)OCc1ccccc1 (stereo unspecified)
6.4%	O=C(NCC(c1cccnc1)N1CCc2ccccc21)c1ccc(Cl)cc1 (stereo unspecified)
11.3%	O=c1c(C=NCCCn2ccnc2)c(-c2ccccc2)[nH]n1-c1nc2ccccc2s1
-11.8%	CCOC(=O)C1=C(COC(=O)/C=C/c2ccccc2)NC(=O)NC1C (stereo unspecified)
18.1%	COC(=O)c1cc(OC)c(OC)cc1NC(=O)c1ccc(OC)cc1
-6.3%	C[C@H]1CN([C@@H](C)CO)C(=O)Cc2cc(NC(=O)CCC(F)(F)F)ccc2O[C@H]1CN(C)S(C)(=O)=O
-2.6%	Cc1nc2c(-c3ccccc3)c(C)nn2c(C)c1CCC(=O)N1CCN(c2ccccc2)CC1
-10.4%	COc1ccc(/C=C/c2ccc3ccccc3[n+]2C)cc1OC
3.3%&-1.6%	CCCN(CCC)C(=O)c1cc2c(=O)n3cccc(C)c3nc2s1
1.0%	COCCOC(=O)c1c(NC(=O)CN2c3ccccc3CC2C)sc(C(N)=O)c1C (stereo unspecified)
10.4%	CCc1ccc(NC(=O)Cn2c(=O)n(-c3ccccc3)c(=O)c3ccc(C(=O)NCc4ccc5c(c4)OCO5)cc32)cc1
-28.2%	O=C(Cn1cnc2cc([N+](=O)[O-])ccc2c1=O)N1CCN(S(=O)(=O)c2ccccc2)CC1
-16.0%	CN1C(=O)C(C)(C)c2cc(S(=O)(=O)N3CCCCCC3)ccc21
3.2%	COc1cc2c(cc1OC)C(COc1ccc3c(C)cc(=O)oc3c1)N(C(=O)c1ccc(C)cc1)CC2 (stereo unspecified)
0.0%	CCN(CC)C(=O)COc1ccc(/C=N/NC(=O)c2cc(-c3ccccc3OC)nc3ccccc23)cc1OC
10.6%	COc1ccc(/C(C)=N/NC(=O)CNC(=O)c2ccco2)c(OC)c1
-6.3%	COCCN(C(=O)Nc1ccc(OC)cc1)c1nc2ccccc2s1
-11.2%	COC(C[C@@H](O)C[C@@H](O)[C@H](C)OCc1ccccc1)OC
-5.0%	Cc1ccccc1Nc1nnc(SCC(=O)N(C)C2CCS(=O)(=O)C2)s1 (stereo unspecified)
1.1%	COc1ccc(OC)c(S(=O)(=O)NCCc2sc(-c3cccnc3)nc2C)c1
-2.7%	COC(=O)CSc1nc(N2CCOCC2)c2c(c1C#N)CCCC2
4.7%	COc1ccc(Nc2nc3ccccc3n3cnnc23)cc1Cl
-1.1%	O=C(Nc1ccccc1)O/N=C/c1ccncc1
6.3%	O=C(NC(=S)Nc1nc(-c2ccccc2)cs1)c1cncc(Br)c1
8.2%	O=C(Nc1cccc(Cl)c1)N1Cc2ccccc2Oc2ncccc21
12.4%	CCOc1ccc(NC(=O)CN2CCN(CC(=O)Nc3ccccc3OCC)CC2)cc1
26.8%	O=C(CNC(=O)c1ccc(Br)o1)NCc1ccc(Cl)cc1
36.4%[activator]	CCc1cccc2c(C(=O)C(NCCOC)c3ccccc3)c[nH]c12 (stereo unspecified)
10.3%	CN(C(=O)CSc1nnnn1-c1ccc(O)cc1)C1CCCCC1
-5.1%	CCOc1ccccc1OCC(=O)Nc1ccc(S(=O)(=O)N(C)C)cc1
-29.2%	CN(c1ccccc1)c1nc(C#N)nc(N2CCOCC2)n1
-13.7%	CCOC(=O)Nc1ccc2c(c1)N(C(=O)N(CC)CC)c1ccccc1CC2
8.3%	COc1ccc2oc(C(=O)c3ccccc3)c(NC(=O)CN3CCN(C)CC3)c2c1
-4.4%	Cc1cccc(CC(=O)NC2CC(=O)N(c3ccc4c(c3)OCCO4)C2)c1 (stereo unspecified)
-2.6%	CCOc1cc(/C=N/O)cc(Cl)c1OC
-9.0%	C=CCN1C(=O)/C(=C/c2ccc(OC(C)=O)c(OCC)c2[N+](=O)[O-])SC1=S
10.8%	CC1CCCC(C)N1/N=C/c1ccccc1OC(F)F (stereo unspecified)

Next section.
VDR inhibitor	compound
4.6%	C=CCn1c(SCC(=O)Nc2nnc(CC)s2)nnc1-c1ccco1
5.5%&-18.6%	Cc1ccc(NC(=O)c2cccc3c2C(=O)N(C2CCCCC2)C3)c(C)c1
-8.7%	CCOc1cc(CN2CCN(c3ccc(C(C)=O)cc3)CC2)ccc1OC
-4.4%	CCOc1ccc(OCC)c(S(=O)(=O)N2CCC(C)CC2)c1
-2.0%&-22.0%	Cc1cccc(NC(=O)CCNS(=O)(=O)c2cccc3nsnc23)c1C
-1.4%&4.0%	COCCNC(=O)CCCN1C(=O)c2ccccc2Sc2ncccc21
-11.5%	C=C(C)C1CC=C(C)/C(=N\NC(=O)CCc2ccccc2)C1 (stereo unspecified)
-0.7%	COc1ccc(Nc2cc(C)nc3ccccc23)cc1
0.1%	COc1ccc(CN2CCN(Cc3ccon3)CC2CCO)c(C)c1C (stereo unspecified)
24.4%	Cc1cccc(NC(=O)Nc2ccc3c(c2)CCC3)c1
-3.5%	CCc1ccc(-c2nn(-c3ccccc3)cc2C2SCC(=O)N2Cc2ccco2)cc1 (stereo unspecified)
-1.4%	CN(C)S(=O)(=O)c1cccc(NC(=O)COC(=O)c2cn(-c3ccccc3)nc2-c2ccccc2)c1
0.9%	N#Cc1ccc(CN2CCN(c3ccc(S(=O)(=O)N4CCCC4)cn3)CC2)cc1
6.4%	O=C(O)Cn1c(C(F)(F)F)nc2ccccc21
3.2%	CC(=O)c1ccc(N2CCOCC2)cc1O
-11.6%	C/C(=N/NS(=O)(=O)c1ccc(C)cc1)c1ccc(NC(=O)C(F)(F)F)cc1
2.7%	Nc1nonc1C(=O)NCCNCc1cccc(Cl)c1Cl
13.2%	CCOc1ccc(N2C(=O)CC(Sc3nc(-c4cccs4)cc(C(F)(F)F)c3C#N)C2=O)cc1 (stereo unspecified)
-12.8%	CC1CCN(c2nc3ccc(C(=O)NCCCN4CCCCC4)cc3s2)CC1
1.7%	Cc1ccc([C@@H]2[C@@H]3C(=O)N(C)C(=O)[C@@H]3[C@]3(C)C(=O)N(Cc4ccccc4)CC(=O)N23)o1
15.0%	O=C(c1ccc(Cl)cc1)N1CCc2c([nH]c3ccccc23)C1C(F)(F)F (stereo unspecified)
-11.8%	CC(C(=O)Nc1ccccn1)N1C(=O)c2ccccc2S1(=O)=O (stereo unspecified)
u	COc1ccccc1-c1nc(Nc2ccncc2)c2ccccc2n1
0.1%&8.0%	CC(C)c1ccc(NC(=O)CCNS(=O)(=O)c2cccc3nsnc23)cc1
-17.9%	CC(=O)OCC(=O)C1(O)CCC2C3CC(C)C4=CC(=O)C=CC4(C)C3(F)C(O)CC21C (stereo unspecified)

Continued, starting with the last 6 of the part before.
VDR inhibitor	compound
1.7%	Cc1ccc([C@@H]2[C@@H]3C(=O)N(C)C(=O)[C@@H]3[C@]3(C)C(=O)N(Cc4ccccc4)CC(=O)N23)o1
15.0%	O=C(c1ccc(Cl)cc1)N1CCc2c([nH]c3ccccc23)C1C(F)(F)F (stereo unspecified)
-11.8%	CC(C(=O)Nc1ccccn1)N1C(=O)c2ccccc2S1(=O)=O (stereo unspecified)
u	COc1ccccc1-c1nc(Nc2ccncc2)c2ccccc2n1
0.1%&8.0%	CC(C)c1ccc(NC(=O)CCNS(=O)(=O)c2cccc3nsnc23)cc1
-17.9%	CC(=O)OCC(=O)C1(O)CCC2C3CC(C)C4=CC(=O)C=CC4(C)C3(F)C(O)CC21C (stereo unspecified)
-4.0%	O=C(NNC(=O)C1CC=CCC1)c1ccccc1Br (stereo unspecified)
-16.9%	O=C(CN(C(=O)CCC(=O)Nc1ccccn1)c1cccc(F)c1)NCc1ccc(F)cc1
-1.6%	O=C(NCCCN1CCCC1=O)c1cccc(S(=O)(=O)N2CCN(c3ccc(F)cc3)CC2)c1
-0.8%	Cc1ccccc1OCC(=O)Nc1nnc(S(=O)(=O)N(C)c2ccccc2)s1
1.4%	CCOc1ccc2ccccc2c1C(=O)Nc1cc(=O)n(C)c(=O)n1C
9.0%	Cc1cc(-c2nnc(SCC(=O)Nc3ccccc3C)n2N)n[nH]1
5.8%	O=S1(=O)NC(C2CC2c2ccccc2)CCO1 (stereo unspecified)
-10.9%	COCCCNC(=O)CSc1nc2ccc(N3CCOCC3)cc2c(=O)n1CCc1ccccc1
-0.6%	COC(=O)c1cc(C)nc2c1c(=O)nc(SCc1cccc(C)c1)n2C1CC1
-7.1%	Cc1cc(-c2ccc(C)c(S(=O)(=O)NCc3ccc(Br)cc3)c2)on1
u	O=S1(=O)CC/C(=N\Nc2ccccc2)c2ccsc21
-1.9%	CC(C)(C)C1(C)OC(C(=O)NC2CCCCC2)C(C(=O)NC2CCCCC2)O1 (stereo unspecified)
-0.3%	O=C(c1ccco1)N1CCN(c2ncnc3c2nnn3Cc2ccccc2Cl)CC1
-22.2%	O=c1[nH]c(/C(Cl)=C/c2cccc(F)c2)nc2cc(C(F)(F)F)ccc12
-21.2%	Cc1nc(-c2ccccc2)nc(Cl)c1Cl
-12.1%	CCC1(CC)Cc2ccccc2-c2nc(-c3ccccc3)oc(=O)c21
-2.3%	COc1ccc(CCn2c3c(c(=O)[nH]c2=O)C(NC(=O)c2ccccc2)(C(F)(F)F)C(=O)N3)cc1OC (stereo unspecified)
17.8µM*	CC(=O)Oc1cc(-c2coc3cc(OC(C)=O)c(OC(C)=O)c(OC(C)=O)c3c2=O)cc(OC(C)=O)c1OC(C)=O
4.7%	Cn1c(N/N=C/c2ccccc2)nc2sc3c(c2c1=O)CCC3
1.8%	CC1(C)CC2CC(C)(CN2S(=O)(=O)c2ccc(C(=O)Nc3cc(S(=O)(=O)N4CCOCC4)ccc3Cl)cc2)C1 (stereo unspecified)
7.8%	Cc1ccc(CNC(=O)COCc2cc(-c3cccs3)on2)cc1
-22.0%	COc1ccc(/C(C)=N/NC(=O)CNC(=O)Cc2ccccc2)c(OC)c1
-13.8%	Cc1nc([N+](=O)[O-])cn1CC(=O)c1ccc(Cl)cc1
18.1%	Cc1cc(C)cc(NC(=O)NCc2ccccn2)c1
16.8%	C=CCOC(=O)CSCC(NC(=O)OC(C)(C)C)C(=O)OCC (stereo unspecified)
10.3%	CCOc1ccc(N2C(=O)c3ccc(C(=O)OCC(=O)N(CC)C4CCS(=O)(=O)C4)cc3C2=O)cc1 (stereo unspecified)
-4.0%	COc1cc(NS(=O)(=O)c2cn(C)cn2)cc(OC)c1OC
-16.9%	C=CCC1(CC=C)CCCN1C(=O)c1cc(COc2ccccc2SC)on1
15.3%	CCOC(=O)C1CCN(C(=O)c2cc3ccc4cccnc4c3[nH]2)CC1
-14.5%	COCCNC(=O)c1ccc(C)cc1C
15.2%	CCOc1ccccc1OCCCC(=O)Nc1nc2ccccc2[nH]1
15.3%	Cc1ccc(CNC(=O)C2CCN(C(=O)Nc3ccc(C)cc3)CC2)cc1
-7.1%	Cc1cc(Cl)ccc1OCC(=O)N[C@@H](Cc1ccccc1)c1nc2ccccc2[nH]1
2.5%	CN1CCCN(C(=O)CNC(=O)Cc2ccccc2)CC1
7.4%	NN=C1c2ccccc2C(=O)C1C(=O)C(c1ccccc1)c1ccccc1 (stereo unspecified)
11.6%	CC(=O)NC(CC(=O)Nc1ccc(S(=O)(=O)N2CCCC2)cc1)c1ccccc1 (stereo unspecified)
u	CCC(=O)Nc1ccc2nc(C3CC3)n(Cc3ccc(C(C)(C)C)cc3)c(=O)c2c1
19.9%	Cc1c(CCC(=O)NCCCN2CCCC2=O)c(=O)oc2c(C)c(O)ccc12
-12.2%	Brc1ccc(-c2nnc(-c3cccnc3)o2)cc1
-3.4%	Cc1onc(-c2c(F)cccc2Cl)c1C(=O)NNC(=O)C1CCN(Cc2ccccc2)CC1
u	CCCCCCCCCCCCCC[n+]1ccc(C)cc1
-21.9%	COc1ccccc1N1CCN(CC(=O)Nc2c(C)n(C)n(-c3ccccc3)c2=O)CC1
13.5%	COCCNCCCCOc1c(Cl)cc(C)cc1Br
4.1%	CCOc1ccc(CN2CCc3nc(N4CCN(c5ncccn5)CC4)ncc3C2)cc1OC
-3.2%	CCn1ccnc1CN(C)Cc1nc(-c2ccc(C(=O)OC)cc2)no1
-5.2%	Clc1ccc(-c2nnc(SCc3cn4ccsc4n3)n2CC2CCCO2)cc1 (stereo unspecified)
-1.2%	Cc1ccc(S(=O)(=O)NCCC(=O)N2CC(C)OC(C)C2)cc1C (stereo unspecified)
79.4µM*	CCc1cccc(NC(=O)CCS(=O)(=O)c2ccc(Br)cc2)c1

Some of the compounds tested; count on the stated rates, not on these rows.
